# Bioassay records: PubChem, several laboratories
# Insulin prom inh: TRM-6 insulin promoter activity inhibition. TRM-6 cells (human fetal islet line), insulin promoter-eGFP reporter, imaging; reporter expression induced with tamoxifen. inhibition, % at 2 µM. 0.9% of 130,000 active. AID 1273;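 active = inhibition above the mean plus 3 SD, with well images judged a real hit on visual review, cut at about 60% in these data, passing the limit was not always enough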
# HSV augment: HSV replication enhancement; HSV replication augmentation in cells, fold increase; maximum fold increase; 0.005% of 220,000 active; AID 1956;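 active = peak rise of 1.5-fold or more in the series; tested in PC3 cells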;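 note: first round at 10 µM; read as green reporter fluorescence; hits show the peak of a series up to 25 µM; 1 = signal of infected wells without compound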
# GALR2 agonist: agonists of human galanin receptor 2 (GALR2) | O43603 | GALR2-expressing cells, agonist activation read-out | activation, %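 (tested at 5 µM)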 | 0.48% of 140,000 active | AID 803;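 active = above mean plus 3 SD of all compounds, about 5% in these data, not always enough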;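 note: 0% = vehicle buffer wells and 100% = reference agonist at full effect; tested in CHO reporter cells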
# PKD1 inh: PKD1 (human) kinase inhibition. Q15139. PKD1 kinase fluorescence polarization assay. inhibition, %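 (about 10 µM by stock and volumes)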. 0.056% of 200,000 active;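 active = inhibition of 50% or more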;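 note: controls were vehicle for no effect and a reference inhibitor for full effect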
# Target sequence (Q15139 whole entry, looked up): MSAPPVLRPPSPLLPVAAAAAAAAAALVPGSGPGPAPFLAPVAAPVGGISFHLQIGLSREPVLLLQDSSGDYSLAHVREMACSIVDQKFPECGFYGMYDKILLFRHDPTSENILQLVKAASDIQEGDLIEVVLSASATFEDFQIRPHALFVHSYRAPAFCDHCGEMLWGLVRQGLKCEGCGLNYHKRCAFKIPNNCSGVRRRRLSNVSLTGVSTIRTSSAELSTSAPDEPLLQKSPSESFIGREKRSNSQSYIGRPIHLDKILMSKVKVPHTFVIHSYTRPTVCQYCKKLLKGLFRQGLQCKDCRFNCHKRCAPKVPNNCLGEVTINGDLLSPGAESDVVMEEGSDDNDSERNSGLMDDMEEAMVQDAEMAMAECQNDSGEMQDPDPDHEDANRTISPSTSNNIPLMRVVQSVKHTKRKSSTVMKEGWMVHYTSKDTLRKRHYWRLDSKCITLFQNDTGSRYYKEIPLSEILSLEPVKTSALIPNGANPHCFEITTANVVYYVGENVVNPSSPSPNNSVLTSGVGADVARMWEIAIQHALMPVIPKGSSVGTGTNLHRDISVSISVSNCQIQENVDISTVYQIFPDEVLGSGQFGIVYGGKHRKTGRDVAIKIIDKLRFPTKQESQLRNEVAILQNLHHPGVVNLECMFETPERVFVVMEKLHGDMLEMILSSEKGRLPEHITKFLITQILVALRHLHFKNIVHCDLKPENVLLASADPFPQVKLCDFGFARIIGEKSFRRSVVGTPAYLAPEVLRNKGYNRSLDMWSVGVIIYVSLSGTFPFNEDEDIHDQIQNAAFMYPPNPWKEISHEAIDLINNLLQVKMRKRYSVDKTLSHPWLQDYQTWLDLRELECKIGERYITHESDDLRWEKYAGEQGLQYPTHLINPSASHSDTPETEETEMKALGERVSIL
# RGS16-Gao HTS: modulates binding between human RGS16 and Galphao; O15492+P09471; bead-based flow cytometry RGS16-Galphao binding, fluorescence; actives lie on both sides; binding response (% of control), % at 10 µM; 0.38% of 220,000 active;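 active = below 25% or above 175%, edge rows of some plates excepted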;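 note: Galphao activated by GDP with aluminum fluoride before binding; 100% = wells without compound and 0% = beads without RGS; some results beyond the cut were filed as inactive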
# Insulin prom inh cell count: recorded beside Insulin prom inh, whose call it bears; normalized cell count, %; measured here: cell count, toxicity; reference of the scale not given here;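 cells exposed to compound for 48 h; stained nuclei by imaging scaled within each plate; lower means fewer cells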
# HSV augment primary fold: second read-out of HSV augment, no call of its own (marks repeat the call); fold increase; compound at 10 µM; measured here: primary screen fold increase 10 uM; tested in PC3 cells;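 GFP signal in the first replicate; 1 = infected wells without compound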
# Starred values were filed as active, the others as inactive; i = inactive; x = not tested or not shown. The order is random. Share with any hit: about 1.3%.
# A first look, 3 compounds:
SMILES,Insulin prom inh,Insulin prom inh cell count,HSV augment,HSV augment primary fold,GALR2 agonist,PKD1 inh,RGS16-Gao HTS
O=[N+]([O-])c1cccc(/C=N/Nc2nc(N3CCCCC3)nc(N3CCCCC3)n2)c1,71*,125*,i,0.98,x,-12,103
CCOCCCNc1nc2c(c(=O)n(C)c(=O)n2C)n1CCCc1ccccc1,x,x,i,0.95,0.1,-1,100
CCCn1c(=O)[nH]c(=O)c2c(C(F)(F)F)cc(-c3ccc(C)cc3)nc21,28,105,i,0.92,x,8,100

# The list itself, previewed entries included:
SMILES,Insulin prom inh,Insulin prom inh cell count,HSV augment,HSV augment primary fold,GALR2 agonist,PKD1 inh,RGS16-Gao HTS
O=[N+]([O-])c1cccc(/C=N/Nc2nc(N3CCCCC3)nc(N3CCCCC3)n2)c1,71*,125*,i,0.98,x,-12,103
CCOCCCNc1nc2c(c(=O)n(C)c(=O)n2C)n1CCCc1ccccc1,x,x,i,0.95,0.1,-1,100
CCCn1c(=O)[nH]c(=O)c2c(C(F)(F)F)cc(-c3ccc(C)cc3)nc21,28,105,i,0.92,x,8,100
O=C(c1ccccc1)N(NC(=O)C(O)(c1ccccc1)c1ccccc1)c1cccc(F)c1,x,x,i,1,-0.4,-13,101
COc1ccc(CCn2c(NN=C3CCCC3)nc3c2c(=O)[nH]c(=O)n3C)cc1,x,x,i,0.93,x,x,108
O=C(CN1CCC(O)CC1)N1c2ccccc2C=Cc2ccccc21,x,x,i,0.89,-1.0,4,106
CC(C)(C)n1cnc2cc(NC(=O)c3cccs3)ccc21,x,x,i,0.8,x,6,102
O=C(c1ccc(O)cc1)c1ccc(C(=O)O)c(C(=O)O)c1,24,110,i,0.87,-4.6,-12,110
CCOC(=O)C(C)Sc1nnc(-c2c[nH]c3ccccc23)n1C (stereo unspecified),x,x,i,1,0.4,-8,54
NS(=O)(=O)c1ccc(-n2ncc3c(=O)[nH]c(SCC(=O)Nc4nccs4)nc32)cc1,50,141,i,0.83,0.1,0,86
CN(C)CCn1c(=O)n(Cc2ccco2)c(=O)c2c3c(sc21)CCCCC3,-46,187,i,0.85,0.2,-2,97
NNC(=O)c1sc2cc(C(F)(F)F)cnc2c1-c1cccs1,x,x,i,0.93,x,-1,107
C=CCn1c(SCC(=O)O)nc2sc(CC)cc2c1=O,-13,111,i,0.99,x,2,98
O=c1[nH]c2cccnc2n(CCNc2ncc(C(F)(F)F)cc2Cl)c1=O,7,113,i,0.98,x,-5,111
O=C(c1cc(-c2ccccn2)nc2ccc(Cl)cc12)N1CCN(CCc2ccccc2)CC1,x,x,i,0.97,x,-5,102
COc1cc(/C=C2\SC(=O)N(CCN)C2=O)ccc1OS(=O)(=O)c1cc(C)ccc1C,x,x,i,0.69,x,1,98
CCOc1ccc(NC(=O)CSc2nnc(C)n2Cc2ccccc2)cc1,-61,132,i,0.98,-2.2,-5,102
CSc1nc(N2CCN(C)CC2)c2c(c1C#N)CC(C)(C)OC2,x,x,i,1,x,x,109
CC(C)C(=O)Nc1cccc(C(=O)Nc2ccc3c(c2)OCO3)c1,15,114,i,0.86,0.0,-6,80
C=CCNC(=O)/C(C#N)=C/c1ccccc1OCc1ccc(C(=O)OC)cc1,x,x,i,0.82,-0.5,9,100

# Individual results from the entries so far:
# In HSV augment primary fold, COc1cc(/C=C2\SC(=O)N(CCN)C2=O)ccc1OS(=O)(=O)c1cc(C)ccc1C reads 0.69
# In RGS16-Gao HTS, CC(C)C(=O)Nc1cccc(C(=O)Nc2ccc3c(c2)OCO3)c1 reads 80
# In Insulin prom inh, C=CCn1c(SCC(=O)O)nc2sc(CC)cc2c1=O reads -13
# In PKD1 inh, CCOc1ccc(NC(=O)CSc2nnc(C)n2Cc2ccccc2)cc1 reads -5

# The main list resumes, starting 2 compounds before the break.
SMILES,Insulin prom inh,Insulin prom inh cell count,HSV augment,HSV augment primary fold,GALR2 agonist,PKD1 inh,RGS16-Gao HTS
CC(C)C(=O)Nc1cccc(C(=O)Nc2ccc3c(c2)OCO3)c1,15,114,i,0.86,0.0,-6,80
C=CCNC(=O)/C(C#N)=C/c1ccccc1OCc1ccc(C(=O)OC)cc1,x,x,i,0.82,-0.5,9,100
CC(=O)Nc1ccc(NC(=O)Cc2ccc(S(=O)(=O)N3CCCCC3)s2)cc1,80*,150*,i,0.95,-1.6,-3,92
CCOC(=O)Cn1nc(C)c(NC(=O)c2cccc([N+](=O)[O-])c2)c1C,-8,119,i,1,x,0,106
COc1cc2nc(CN(C)Cc3ccc(SC)cc3)[nH]c(=O)c2cc1OC,x,x,i,0.83,x,x,100
Cc1c(Cl)cnc(NC(=O)COC(=O)c2cccc(S(=O)(=O)N3CCc4ccccc4C3)c2)c1Cl,-53,104,i,0.93,-1.0,0,103
Cn1c(NCCCN2CCOCC2)nc2c1c(=O)n(Cc1ccc(Cl)cc1Cl)c(=O)n2C,x,x,i,0.59,0.2,-13,98
COc1cc(S(=O)(=O)N2CCC(c3nc4ccccc4s3)CC2)ccc1S(=O)(=O)NC1CCCC1,62,83,i,1.1,-1.4,0,102
Cc1cc([N+](=O)[O-])nn1CCC(=O)Nc1nccs1,27,122,i,0.87,x,0,110
CCOC(=O)C(NC(=O)c1ccccc1)=C1C=C(C)OC(C)=C1,-47,143,i,1,-4.3,-2,102
COc1cccc(NC(=O)Cn2c(SCC(=O)N3CCOCC3)nc3ccccc32)c1,0,90,i,1.1,-0.5,3,97
COc1cc2c(cc1OC)-c1nnc(-c3cccs3)n1C(C)(C)C2,x,x,i,0.91,0.9,-10,x
CCOC(=O)C1(S(=O)(=O)c2ccc(Cl)cc2)CCN(Cc2ccccc2)CC1,-13,97,i,0.9,-0.3,-7,107
O=S(=O)(NC1CCCCC1NCc1ccco1)c1ccc(Cl)cc1 (stereo unspecified),x,x,x,x,-0.8,-2,83
CC(C)(C)OC(=O)NCCC(=O)N/N=C/c1ccc2nccnc2c1,x,x,i,0.94,x,x,96
Cn1c(/C(C#N)=C2/CCCCCN2)nc2ccccc21,x,x,i,0.96,-2.7,-3,98
COc1ccc(C(NC(=O)c2ccccc2F)NC(=O)c2ccccc2F)cc1,x,x,i,0.87,-0.4,-11,95
COc1ccc2c(c1)-c1c(sn(-c3ccc(OC)c(OC)c3)c1=S)C(C)(C)N2,17,117,i,0.62,-2.2,-1,108
Cn1c(=O)[nH]c(=O)c2c1nc(N1CCOCC1)n2CCc1ccccc1,x,x,i,0.95,x,-7,93
COc1ccc(NC(=O)CSc2nnc(Cn3c(=O)sc4ccccc43)n2C)cc1,x,x,i,0.82,-1.0,2,96
Cc1cc(Cl)ccc1OCC(=O)NC(=S)Nc1ccccc1N1CCOCC1,2,91,i,0.9,-2.5,-11,108
COc1ccccc1-n1c(=S)[nH]c2c(sc(=S)n2-c2ccccc2)c1=O,-47,95,i,0.62,x,2,97
CC[N+](CC)(CCCCS(=O)(=O)[O-])CCNP1(=O)C=C(c2ccccc2)OC(c2ccccc2)=C1,x,x,i,0.98,x,5,99
COc1ccccc1/C=C/C=N/NC(=O)c1ccncc1,24,134,i,1.1,0.6,-1,106
CC(=O)N(c1ccccc1)c1nc(/C=C/C(=O)O)cs1,x,x,i,0.86,x,0,102
CCc1c(C)nc(N)n2c(SCC(=O)Nc3ccccc3OC)nnc12,x,x,i,0.96,-0.8,-6,106
Cc1nn(-c2ccccc2)c2c1C(c1cccc([N+](=O)[O-])c1)N(c1ccccc1)C(=O)N2 (stereo unspecified),x,x,i,0.8,-1.6,7,111
Cn1cccc1C(=O)OCc1cc(Cl)cc2c1OCOC2,x,x,i,0.87,-1.3,-10,102
C=CCN1CC(C)/C(=N\O)CC1C (stereo unspecified),x,x,i,1,x,x,101
CCOc1ncccc1C(=O)N1CCN(S(=O)(=O)c2ccc3ccccc3c2)CC1,x,x,i,0.78,x,x,87
CCCCn1c(-c2csc3ccccc23)n[nH]c1=S,-11,49,x,x,-1.8,-1,102
O=C(Nc1nnc(COc2ccccc2F)s1)Nc1ccccc1F,x,x,i,1.4,x,x,93
CS(=O)(=O)N1CCc2cc(NC(=O)c3ccc(Cl)cc3Cl)ccc21,x,x,i,0.91,x,2,101
Cc1noc(C)c1C(=O)NCc1ccco1,-67,133,i,0.88,-0.1,-7,101
O=C(CCl)NCCN1C(=O)S/C(=C\c2cccnc2)C1=O,-29,106,i,1,x,-1,93
Oc1cccc2c(NC(=S)Nc3ccc(SC(F)F)cc3)cccc12,-7,122,i,0.96,-0.2,-2,108
Cc1cc(C)nc(SCc2ccc(C(=O)N/N=C/c3ccc(C(=O)O)cc3)cc2)n1,x,x,i,0.94,x,-2,106
CC(NS(=O)(=O)c1ccc([N+](=O)[O-])cc1)C(=O)NN (stereo unspecified),-69,83,i,0.94,x,0,96
COc1ccc(C(=O)C2CCCN(C(=O)c3cccnc3OC)C2)cc1F (stereo unspecified),42,118,i,0.9,x,1,101
Cc1cc(NS(=O)(=O)c2ccc(NC(=O)Cc3cccs3)cc2)no1,-10,177,i,0.7,-1.3,-2,100
O=[N+]([O-])c1ccc2c(c1)nc1n2CCCCC1,x,x,i,1,x,-2,101
Cc1ccc(/C=C/C(=O)N2CCN(S(=O)(=O)/C=C/c3ccccc3)CC2)o1,x,x,i,0.78,x,x,105
O=C(CSCc1ccc(Cl)cc1Cl)Nc1nccs1,7,100,i,0.96,-2.1,-7,113
O=C(c1ccc(NS(=O)(=O)c2cccs2)cc1)N1CCN(c2ccccc2Cl)CC1,x,x,i,0.91,x,-3,108
O=C(Nc1ccc(Cl)cc1)c1csc(Cc2ccccc2)n1,x,x,i,1,x,-1,100
Cc1cc(C(=O)N/N=C2/CC(C)CC(C)(C)C2)c(C)o1 (stereo unspecified),x,x,i,0.91,x,-6,101
CCOc1ccc(NC(=S)Nc2cccc3cnccc23)cc1,40,150,i,0.99,-0.5,2,101
CCO[C@H]1OC(C(=O)NCc2ccccc2)=C[C@@H](C)[C@@H]1CCCO,x,x,i,0.79,x,-1,102
Cc1nn(-c2ccccc2Cl)c(Cl)c1/C=C(\C#N)C(N)=O,-7,70,i,0.7,-2.0,-17,80
CCOCCCn1c(=S)[nH]c2cc(C(=O)NCC(OC)OC)ccc2c1=O,-33,120,i,0.66,x,0,95
N#C/C(=C\c1c[nH]c2ccccc12)C(=O)Nc1ncc(Cc2ccc(Cl)cc2Cl)s1,x,x,i,1,6.4*,-4,101
CCCCn1c(SCC(=O)NCc2ccco2)nnc1-c1ccoc1C,19,122,i,0.74,-0.6,10,100

# New compounds follow.
SMILES,Insulin prom inh,Insulin prom inh cell count,HSV augment,HSV augment primary fold,GALR2 agonist,PKD1 inh,RGS16-Gao HTS
COC(=O)CSc1nnc(SCc2ccccc2)s1,-107,74,i,0.97,-1.6,-6,110
COc1ccc(CCNC(=O)c2cccnc2)cc1OC,x,x,i,0.98,-2.6,4,100
COc1ccc(NC(=O)CS(=O)CC(=O)Nc2ccc(OC)c(OC)c2)cc1 (stereo unspecified),x,x,i,1,-1.4,1,96
Cc1cnn(C(=O)c2cc(-c3ccccn3)nc3ccc(Cl)cc23)c1,x,x,i,1,x,5,101
COn1c(-c2ccccc2)nc2c1CCc1c-2no[n+]1[O-],x,x,i,0.73,-1.5,-6,93
O=C(NCC1CCCO1)C1CCN(C2CCN(Cc3ccco3)CC2)CC1 (stereo unspecified),x,x,i,1.1,x,-8,108
CCC(C)(C)NC(=O)C(c1ccncc1)N(C(=O)Cn1nnc2ccccc21)c1cc2c(cc1C(C)=O)OCO2 (stereo unspecified),x,x,i,0.92,x,-14,103
COCCCNC(=O)NC(=O)c1ccccc1,0,151,i,0.98,-0.7,-7,103
Cc1ccc(C(=O)N2CCN(S(=O)(=O)c3ccc(C)cc3)CC2)cc1,x,x,i,1,x,2,102
O=C(NCc1cccs1)c1cc(-c2cccc(Cl)c2)on1,-20,195,i,0.9,-0.1,-14,104
CCCCCCOc1ccc(OC(=O)c2ccncc2)cc1,-78,114,i,0.81,-0.8,2,102
O=C(O)CCCC(=O)N1N=C(c2ccccc2)CC1c1ccc2nccnc2c1 (stereo unspecified),7,97,i,0.93,-0.5,0,94
CCOC(=O)C1=C(C)Nc2ncnn2C1c1cc(OC)ccc1OC (stereo unspecified),25,179,i,0.98,-1.5,-3,98
CC1=NN(C(N)=S)C(C)(C)C1,x,x,i,1.1,x,x,100
CCOc1cc(/C=N/O)ccc1OS(=O)(=O)c1ccc(C)cc1,0,123,i,0.92,-1.5,3,99
O=C(Nc1nnc(-c2ccccc2Cl)o1)c1ccco1,67,92,i,1.2,-1.6,-3,x
COc1ccc(C(=O)C2CCCN(Cc3c(C)[nH]c4ccccc34)C2)c(OC)c1 (stereo unspecified),x,x,i,0.94,x,10,104
CN(c1ccccc1)c1nc(N)c([N+](=O)[O-])c(N2CCOCC2)n1,x,x,i,0.87,x,x,108
CSc1ccc(/C=C(\C#N)C(=O)NC2CCCCC2C)cc1 (stereo unspecified),7,161,i,0.82,0.3,-10,101
